# RVFV N-RNA FP = blocks Rift Valley Fever Virus nucleoprotein binding to RNA. P21700. RVFV N-RNA binding, fluorescence polarization; hits give low values. % bound, % (no concentration beside the values). 20,000 compounds, 0.1% hits;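 active means between 0 and 58% in either replicate with normal brightness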;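 further: 100 nL library stock added to about 12 µL; 100% = protein and probe without compound and 0% = probe alone; numbers are from one replicate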
# Target sequence (P21700 whole entry, looked up): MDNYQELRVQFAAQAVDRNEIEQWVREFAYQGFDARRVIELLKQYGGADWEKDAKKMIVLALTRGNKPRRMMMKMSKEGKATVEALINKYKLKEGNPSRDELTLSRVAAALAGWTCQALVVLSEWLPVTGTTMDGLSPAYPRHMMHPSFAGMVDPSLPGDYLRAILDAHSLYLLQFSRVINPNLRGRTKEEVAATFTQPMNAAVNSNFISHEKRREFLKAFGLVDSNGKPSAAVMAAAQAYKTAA
# The depositor's hits bear a star; & = joins results of further samples. The list is partial; count on the stated rates, not on these rows.
SMILES,RVFV N-RNA FP
COc1cccc2cc(C(=O)C3=C(O)C(=O)N(CCCN(C)C)C3c3ccncc3)oc12 (stereo unspecified),94
Cc1nc(-c2cc(-c3nc(-c4ccc(C(F)(F)F)cc4)no3)no2)cs1,94
O=C(CCN1C(=O)/C(=C\c2ccco2)SC1=S)NN1CCOCC1,111
Cc1cc(Cl)ccc1OCCN(C)CCO,98
CCOC(=O)Cc1ccc(-n2c(C)ccc2C)cc1,96
Cc1ccc(C(=O)N(C)Cc2ccccc2)c(Cl)c1,93
O=C(CSc1ccc(-c2ccco2)nn1)Nc1ccccc1,85
Cn1c(=O)c2cc(S(=O)(=O)N3CCOCC3)ccc2n(C)c1=O,101
c1ccc2c(CNn3cnnc3)cccc2c1,91
CC1CCCC(C)N1C(=O)CN(C)S(=O)(=O)c1ccc(Cl)cc1 (stereo unspecified),95
O=C(CCSc1nnnn1-c1ccccc1)N1CCOCC1,98
O=C1/C(=C/c2cccs2)SC(=S)N1CCCN1CCOCC1,96
OC(CN1CCN(c2nc3ccc(Cl)cc3s2)CC1)Cn1ccc2ccccc21 (stereo unspecified),82
COc1ccccc1C(=O)Nc1ccc(N2CCCCC2)cc1,100
Cc1cc(C)n(-c2nc3cc(Cl)ccc3nc2NCc2ccc3c(c2)OCO3)n1,107
N#Cc1c2n(c3c(=O)[nH]cnc13)CCCC2,89
CCc1ccc(N2C(=O)CC(Sc3nnc(N)s3)C2=O)cc1 (stereo unspecified),111
CCOC(=O)c1cnc(C(C)(C)C)[nH]c1=O,94
CCN1C(=O)CC(NC2CCN(C(=O)c3ccc(F)cc3)CC2)C1=O (stereo unspecified),93
COc1ccc(C(=N/O)/C(=N/O)c2ccc(OC)cc2)cc1,96
CCOc1c(Cl)cnn(-c2ccccc2)c1=O,100
COc1ccc2c(c1)O/C(=C\c1cccc(OC(=O)N3CCOCC3)c1)C2=O,97
COc1ccccc1NNC(=O)C1CCCCC1,98
CCCCCCC1CCC/C1=N\NC(N)=O (stereo unspecified),97
CC(=O)Nc1ccc(CN2CCN(C/C=C/c3ccccc3)CC2)cc1,95
CCOc1cc2ncnc(Nc3cccc(Br)c3)c2cc1OCC,109
O=c1n(Cc2ccccc2)nc2n1-c1ccccc1SC2,93
O=C1NC(=Nc2ccc(F)cc2)CS1,97
CC(NS(=O)(=O)c1ccc(F)cc1)C(c1cccs1)N1CCN(c2ccccc2)CC1 (stereo unspecified),101
CN(C)c1ccc(/C=C/CN2CCSCC2)cc1,111
CCC(=O)Oc1ccc(NC(=O)CSCc2ccccc2)cc1,97
CCCCCCSc1nc(O)c(CC)c(=O)n1-c1ccccc1,89
O=C(/C=C/c1cccs1)N(Cc1ccccn1)c1nc2ccccc2s1,96
CN1C(=O)C2C=CC1C1C(=O)N(c3ccccc3)C(=O)C21 (stereo unspecified),105
COC(=O)C(N)Cc1ccc(O)cc1 (stereo unspecified),90
N#Cc1nn(-c2ccccc2)c(=O)n(Cc2ccccc2)c1=O,96
CCC(C)C(=O)Nc1ccc(-c2nnc(-c3ccccc3)o2)cc1 (stereo unspecified),87
CC=C1[C@H]2C=C(C)C[C@]1(N)c1ccc(=O)[nH]c1C2,98
Cc1cc(I)cc(C)c1NC(=O)CSc1nnc(Cc2ccccc2)o1,109
OC(CNCCNc1ncccc1C(F)(F)F)Cn1ccc2ccccc21 (stereo unspecified),93
COc1ccc(CNC(=O)/C=C/c2ccc3[nH]cc(CCN(C)C)c3c2)cc1,98
O=C1c2ccccc2C(=O)N1c1nc(-c2cccs2)cs1,100
Cc1ccc(S(=O)(=O)NC(CC(=O)O)c2ccccc2)cc1 (stereo unspecified),98
c1ccc(-c2ccc(SCc3cccnc3)nn2)nc1,86
O=C(O)[C@H]1NCCC[C@H]1C(=O)O,109
O=C(COc1ccc(Br)cc1)Nc1cccc(-c2nc3ccccc3o2)c1,100
C=C1C[C@@H]2[C@H](CC[C@]3(C)C(=O)CC[C@@H]23)[C@@]2(C)C=CC(=O)C=C12,91
Cn1c(/C(C#N)=C(\O)c2ccccc2)nc2ccccc21,95
CC(C)(C)NC(=O)CS(=O)(=O)c1cn(CC(=O)N2CCCCC2)c2ccccc12,89
COC(=O)c1ccc(NC(=S)Nc2cc(C)[nH]n2)cc1,96
CC(Nc1ncnc2c1cnn2C)C1CC2CCC1C2 (stereo unspecified),96
CCN(CC)C(=O)N1CC(C)CC(C)C1 (stereo unspecified),95
N=C(N=C(N)N)N(c1ccccc1)c1ccccc1,92
CCc1c(C)sc(NC(=O)c2cnn3cccnc23)c1C#N,93
NC(=O)CI,99
CC1(C)CC(=O)C(C=NCC(O)CO)=C(O)C1 (stereo unspecified),98
NC(=O)C1CCCN1C(=O)C(Cc1cnc[nH]1)NC(=O)C1CCC(=O)N1 (stereo unspecified),104
CC(Oc1coc(CN2CCN(Cc3ccccc3)CC2)cc1=O)c1ccccc1 (stereo unspecified),90
COc1ccc2[nH]c(C(=O)NCCN3CCCCC3)cc2c1,94
O=C(O)C1C2C=CC(O2)C1C(=O)NCc1ccccc1Br (stereo unspecified),95

# Quoted from the results shown (two entries):
SMILES,RVFV N-RNA FP
CC(Oc1coc(CN2CCN(Cc3ccccc3)CC2)cc1=O)c1ccccc1 (stereo unspecified),90
COc1ccc2[nH]c(C(=O)NCCN3CCCCC3)cc2c1,94

# More results
SMILES,RVFV N-RNA FP
CC(C)CNc1nc(SCC(N)=O)nc(N(C)C)n1,91
Cc1nc2cc(NC(=O)NC3=NCCS3)ccc2n1C,93
CCOC(=O)N1CCN(c2nc3c(c(=O)n(C)c(=O)n3C)n2CCSc2nnc(C)s2)CC1,92
CCOC(=O)/C(C#N)=C/c1ccsc1,92
O=C(NC1(C(F)(F)F)OCCO1)c1ccc(F)cc1,89
C=C(C)Cn1c(=O)c2c(nc3n2CC(C)CN3Cc2ccccc2)n(C)c1=O (stereo unspecified),92
Cc1cccc(C(=O)N/C(=C/c2ccco2)C(N)=O)c1,97
N#CCCN(Cc1ccccc1)C(=O)c1ccccc1,96
Cc1ccc(S(=O)(=O)c2nc(NCCN3CCOCC3)sc2Cl)cc1,96
CCc1cc(C(=O)Nc2sccc2C(N)=O)cs1,93
O=C1CCCC(=O)C1C1c2ccccc2Oc2ccc(F)cc21 (stereo unspecified),97
S=P1(NCc2ccccc2)NC(=NCc2ccccc2)c2c(nc3n2CCC3)N1 (stereo unspecified),93
N#Cc1cccnc1NNC(=O)CC1(CC(=O)O)CCCC1,87
CS(=O)(=O)N(Cc1ccccc1)c1ccccc1,95
O=C(CC1NCCN(Cc2ccccc2)C1=O)N/N=C/c1cc(Cl)cc(Cl)c1O (stereo unspecified),98
O=C(Cn1c(=O)n(-c2ccc(F)cc2)c(=O)c2oc3ccccc3c21)NCc1ccc2c(c1)OCO2,97
CN(CC(=O)N1CCC(C(N)=O)CC1)S(=O)(=O)c1ccc(Br)cc1,83
c1ccc2c(c1)nnn2C12CC3CC(CC(C3)C1)C2,104
COc1cc(C(=O)Oc2ccc(C#N)cc2)cc(OC)c1OC,93
O=C(NCc1ccccc1Cl)C1CC1,98
N#CC(C#N)=CNNc1ncnc2sccc12,94
CC(C)CC(=O)Nc1cc(Cl)ccc1Cl,103
Cc1ccc(-n2nc(C)c3onc(C)c3c2=O)cc1,96
CCC(c1ccccc1)c1nc(-c2ccccc2)no1 (stereo unspecified),94
COc1ccc(NC(=O)C2=Cc3cccc(OC)c3OC2)cc1,93
C#CCn1c(=NC(=O)CSCC(=O)N2CCCC2)sc2ccccc21,95
Cc1ccccc1Cn1nc(-c2ccco2)ccc1=O,101
O=C(Cn1cnc2c(nnn2Cc2ccc(Cl)cc2)c1=O)NCc1ccc2c(c1)OCO2,88
Cc1c(N)cc(N)cc1C(=O)O,84
CCOc1ccc(C2C(C(=O)OC)=CN(CC(C)C)C=C2C(=O)OC)cc1OC,93
Cc1cc(C)c(C(=O)CSC2=NC(N)=C(C#N)C3(CCCCC3)C2C(N)=O)cc1C (stereo unspecified),99
O=C(/C=C/C=C/c1ccccc1)c1ccncc1,101
Cc1nn(S(=O)(=O)c2ccc(Cl)cc2)cc1-c1nsc(Nc2ccccc2)n1,94
COC(=O)c1ccc(S(=O)(=O)N2CCC(O)CC2)n1C,99
O=C(NC(=S)Nc1nn[nH]n1)C1CCCCC1,96
CCCCc1nc2sc3c(=O)n(N)cnc3c2c2c1CCC2,100
CC(COc1ccccc1)N(CCCl)Cc1ccccc1 (stereo unspecified),95&101
COc1cc(/C=N/NC(N)=O)cc2sc(=O)oc12,90
O=C1c2ccccc2C(O)(Cc2ccccc2)N1C1CCCCC1 (stereo unspecified),102
Cn1c(=O)c2c(SCCN3CCCC3)nc(C3CCCC3)nc2n(C)c1=O,96
Cc1ccc(NC(=O)CC(=O)O)cc1,99
O=S(=O)(c1ccc(-c2ccccn2)s1)N1CCOCC1,88
Cc1ccc(S(=O)(=O)CNC=O)cc1,94
CCN(CC)CCOc1ccc(/C(=C(/Cl)c2ccccc2)c2ccccc2)cc1,97
O=C1NNC(c2ccccc2)=N/C1=C\c1ccco1,88
Cc1cc(OC(C)C(=O)Nc2ncn[nH]2)ccc1Cl (stereo unspecified),91
CC(=O)NCCOc1cccc2ccccc12,95
CCN(CC)/C(C)=N/C(=O)Nc1ccccc1,100
O=Cc1c(O)c2ccccc2c2ccccc12,88
CS(=O)(=O)c1ccc(C(=O)Nc2nccs2)cc1,99
Cc1cccnc1NC1=NCC(C)S1 (stereo unspecified),97
N/C(=N\OC(=O)c1csnn1)c1ccc(-c2csnn2)cc1,99
CCn1c(=NC(=O)c2ccc(N(C)C)cc2)sc2cc(C)ccc21,111
CCOC(=O)Nc1sccc1C(N)=O,97
CCN(CC)c1ccc(C(F)(F)F)cn1,99
Cc1ccc(C(=O)Nc2cccc(O)c2)cc1,96
CC(C)CC(NC(=O)C(COC(C)(C)C)NC(=O)C(Cc1ccc(O)cc1)NC(=O)C(CO)NC(=O)C(Cc1c[nH]c2ccccc12)NC(=O)C(Cc1cnc[nH]1)NC(=O)C1CCC(=O)N1)C(=O)N[C@@H](CCCN=C(N)N)C(=O)N1CCCC1C(=O)NNC(N)=O (stereo partly specified),97
Cc1c(N/C=C/C(=O)c2cccs2)c(=O)n(-c2ccccc2)n1C,93
Cc1cccc(-c2nc(C#N)c(NCc3ccccc3)o2)c1,110
COC(=O)Oc1c(Br)c(=O)oc2ccccc12,94
# Going on with the list.
SMILES,RVFV N-RNA FP
O=C(N1CCN2CCCC2C1)C(F)(F)C(F)(F)C(F)(F)C(F)(F)F (stereo unspecified),92
Cc1ccccc1NC(=O)Nc1c(C)n(-c2ccccc2)c(=O)n1C,98
Brc1ccc(OCCn2cnc3ccccc32)cc1,88
Cc1csc(NC(=O)CSc2nnc(CCNC(=O)c3ccc(Cl)c(Cl)c3)n2C)n1,100
O=C(Cc1ccccc1)Nc1nnc(-c2ccco2)o1,98
O=C(Nc1nc2c(s1)COc1ccccc1-2)c1ccc2ncsc2c1,93
O=C(Nc1cccnc1)c1cccc(C(F)(F)F)c1,99
O=C1c2ccccc2C(=O)N1CC#Cc1ccccc1,88
O=C(c1ccc(CN2CCOCC2)o1)C(F)(F)F,94
Cc1cc(C(C)(C)C)cc(C)c1CC1=NCCN1,101
Cc1nc(N=Nc2cc(S(=O)(=O)O)c3cc([N+](=O)[O-])cc(S(=O)(=O)O)c3c2)c(COP(=O)(O)O)c(C=O)c1O,71
COCC(=O)N1CCCc2ccccc21,89
N#CC(C#N)=Cc1ccsc1,94
CCC(=O)OCC(=O)[C@@]1(OC(=O)CC)[C@@H](C)C[C@H]2[C@@H]3CCC4=CC(=O)C=C[C@]4(C)[C@@]3(Cl)[C@@H](O)C[C@@]21C,95
c1ccc(C2C3=C(Nc4ncnn42)c2ccccc2OC3c2cccs2)cc1 (stereo unspecified),100
COc1ccc2c(c1)CCC1C2CC[C@@]2(C)C1CC[C@@H]2NCCCCCCN1C(=O)CCC1=O (stereo partly specified),101
CCn1cc(C(=O)O)c(=O)c2cc(F)c(N3CCN(C(=S)NC(=O)c4c(-c5ccccc5)noc4C)CC3)cc21,96
COc1cccc(-n2c(N)c(C(N)=O)c3nc4ccccc4nc32)c1,99
Cc1oc(S(=O)(=O)N2CCOCC2)cc1C(=O)NCCNc1ncccc1C(F)(F)F,101
N#Cc1cnc(Sc2nnc(-c3ccc(Cl)cc3)n2Cc2ccccc2)nc1N,92
CC1(C)S[C@@H]2[C@H](NC(=O)[C@H](N)c3ccccc3)C(=O)N2[C@H]1C(=O)O,94
Cc1nc(NNC(=O)c2ccccc2)cc(-c2ccccc2)n1,92
Cc1ccc(C)c(S(=O)(=O)NCc2ccc(C(=O)N3CCN(C)CC3)cc2)c1,98
COc1ccc(-c2cc(C(=O)N3CCCC3C(=O)O)c(C)o2)cc1OC (stereo unspecified),100
CCc1c(C)n([O-])c2c([n+]1=O)CCCC2,95
C#CCn1c(=NC(=O)CSCC(=O)Nc2cc(C)on2)sc2ccccc21,97

# Structures above that contain a cyano group:
SMILES,RVFV N-RNA FP
N#Cc1c2n(c3c(=O)[nH]cnc13)CCCC2,89
N#Cc1nn(-c2ccccc2)c(=O)n(Cc2ccccc2)c1=O,96
Cn1c(/C(C#N)=C(\O)c2ccccc2)nc2ccccc21,95
CCc1c(C)sc(NC(=O)c2cnn3cccnc23)c1C#N,93
CCOC(=O)/C(C#N)=C/c1ccsc1,92
N#CCCN(Cc1ccccc1)C(=O)c1ccccc1,96
N#Cc1cccnc1NNC(=O)CC1(CC(=O)O)CCCC1,87
COc1cc(C(=O)Oc2ccc(C#N)cc2)cc(OC)c1OC,93
N#CC(C#N)=CNNc1ncnc2sccc12,94
Cc1cc(C)c(C(=O)CSC2=NC(N)=C(C#N)C3(CCCCC3)C2C(N)=O)cc1C (stereo unspecified),99
Cc1cccc(-c2nc(C#N)c(NCc3ccccc3)o2)c1,110
N#CC(C#N)=Cc1ccsc1,94
N#Cc1cnc(Sc2nnc(-c3ccc(Cl)cc3)n2Cc2ccccc2)nc1N,92
